PMP22 txn prim: PMP22 gene transcription modulation; S16 Pmp22-F2sN Schwann cells (luciferase reporters placed in the Pmp22 gene), FLuc/NLuc coincidence luminescence, 24 h; 43,000 tested, 2% active; Potency, µM (series often up to 57.5 µM), for inactives: at the top dose activity change, negative = inhibition, hits mostly inhibitors; active = clear falling dose curves in both reporters; inconclusive = both reporters move, but less clearly or upward; inactive = either reporter flat; the % is the NLuc reporter signal; further: on the % scale 0 is the no-effect control and ±100 the full control effect; some results filed as inactive show a strong effect at the top dose
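Reporter cells (S16 Pmp22-F2sN, 500–1,000 per well) exposed to compounds for 24 h, 37C, 5% CO2; lysis with FLuc read after 10 min, then Stop&Glo and NLuc read after 10 min.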
HTT promoter inh: HTT promoter inhibition. AID 1508623. 48,000 tested, 0.93% active. Potency, µM (doses to about 57.5 µM), inactives show at the top dose activity change, negative = inhibition, usual class: inhibitors. HEK293 HTT promoter firefly luciferase reporter (activity 0% = vehicle and -100% = no light), 24 h; active means well fitted inhibition curve with a large enough effect; inconclusive means small, poorly fitted or top-dose-only effect; inactive means no such curve, though single readings can be large or run the other way; further: nearly all actives have a fitted effect of over 50% in size
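Luminescence was read after Dual-Glo reagent and a 10 min room-temperature incubation. Values were normalized to vehicle (0% activity) and zero RLU (-100% activity). Reporter HEK293 cells had been exposed to compounds (up to 57.5 uM final) for 24 h.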
* hit, by the source's call; ? = inconclusive; / = no result given; & = joins results of further samples; [ ] = another dose, or the depositor's remark. Potency means the concentration at half of the fitted maximal effect. Compounds as they come; 2.4% or so of the library scored in one or more.

item | compound | HTT promoter inh | PMP22 txn prim
1 | CCC(C(=O)NCc1ccccc1)n1ncn2c(cc3occc32)c1=O (stereo not given) | -8.4% | 11.1%
2 | O=C(Nc1nc2n(n1)C(c1ccccc1)C=C(c1ccc(Cl)cc1)N2)c1ccco1 (stereo not given) | ? | -7.1%
3 | O=C(Nc1ccccc1F)c1oc2ccccc2c1NC(=O)C12CC3CC(CC(C3)C1)C2 | -3.7% | -5.3%
4 | CN(C)c1ccc(C(CNC(=O)c2cccc(C(F)(F)F)c2)N2CCCC2)cc1 (stereo not given) | -17.4% | ?
5 | COc1ccc(-c2noc(-c3nnn(-c4ccc(C)cc4C)c3C)n2)cc1 | 12.0% | 19.1%
6 | CCN(C(=O)Cn1nc(Cc2cccnc2)c2ccccc2c1=O)c1ccccc1F | -12.0% | ?
7 | O=C1CC(c2c(Cl)cccc2Cl)c2c(ccc3ccccc23)N1 (stereo not given) | ? | -9.5%
8 | Cc1ccc(C(=O)c2oc3ccccc3c2NC(=O)Cc2coc3cc(C)ccc23)cc1 | -14.6% | -27.6%
9 | COc1cccc(CSc2nc3n(n2)C(c2ccccc2C)C(C(=O)Nc2ccccc2OC)=C(C)N3)c1 (stereo not given) | 0.0% | -4.6%
10 | Cc1cc(C)cc(NC(=O)c2sc3nc(-c4cc5ccccc5oc4=O)[nH]c(=O)c3c2C)c1 | 6.6% | -7.2%
11 | Cc1ccc(CCNC(=O)c2ccc(NC(=O)N3CCSc4ccccc43)cc2)cc1 | -7.4% | -15.5%
12 | O=C(CSc1cn(CC(=O)N2CCCC2)c2ccccc12)Nc1cc(C(F)(F)F)ccc1Cl | ? | ?
13 | COc1ccc2c(c1)c1c(c(=O)n(-c3ccccc3)c(=O)n1CC(=O)NCCC1=CCCCC1)n2C | -17.9% | -2.8%
14 | c1ccc(CNc2ncnc3[nH]ncc23)cc1 | ? | ?
15 | CN(c1ccccc1)S(=O)(=O)c1ccc(NC(=O)c2cc(=O)c3ccccc3o2)cc1 | -8.1% | 22.1%
16 | CC1CCC(NC(=O)c2ccc(CSc3nc4ccncc4n3Cc3ccc(F)cc3)cc2)CC1 (stereo not given) | ? | ?
17 | CC(C)(C)c1ccc(C(=O)NCC(c2cccs2)S(=O)(=O)c2ccc(F)cc2)cc1 (stereo not given) | 20µM* | ?
18 | COCCn1c(C)cc(O)c(C(c2ccc(OC)cc2)N2CCCCC2)c1=O (stereo not given) | -17.0% | 12.3%
19 | COc1cc2[nH]c(=O)n(Cc3ccc(C(=O)N4CCN(c5ccc(Cl)cc5)CC4)cc3)c(=O)c2cc1OC | 14.1µM* | ?
20 | CCOC(=O)N1CCc2c(sc(NCc3sccc3C)c2C(=O)Nc2ccc(OC)cc2OC)C1 | ? | -2.0%
21 | CCC(C(=O)Nc1cc(F)ccc1F)n1nc(-c2cc(C)ccc2C)ccc1=O (stereo not given) | -26.0% | 6.0%
22 | CCN(CC)CCNC(=O)C1CCN(c2nn3cc(-c4ccc(F)cc4)nc3s2)CC1 | -5.0% | ?
23 | COc1cc(C(=O)Oc2c(Sc3ccc(C)cc3)c(C)nn2-c2ccccc2)cc(OC)c1OC | ? | -21.3%
24 | COc1cc2nc(SCC(=O)Nc3c(C)cc(C)cc3C)n3nc(CCn4c(C)nc5ccccc54)nc3c2cc1OC | -21.3% | -17.7%
25 | COC(=O)c1ccc(NC(=O)c2cc3cc(C)ccc3n2C)cc1 | -51.6% | -0.3%
26 | COCCNC(=O)c1ccc2c(c1)NC(=O)C(CS(=O)(=O)Cc1ccc(F)cc1Cl)N2 (stereo not given) | -2.5% | 3.6%
27 | COc1cc(OC)cc(N2CCN(S(=O)(=O)c3ccc(-n4cnnn4)cc3)CC2)c1 | -1.3% | -8.0%
28 | COc1ccc(C(=O)c2ccccc2O)c(O)c1 | 18.9% | /
29 | Cc1sc2ncn(CC(=O)N3CCN(c4cccc(Cl)c4)CC3)c(=O)c2c1S(=O)(=O)N1CCC(C)CC1 | 3.4% | -10.1%
30 | Cc1cccc(C(=O)Nc2nc(-c3ccc(Br)cc3)ns2)c1 | 7.2% | 7.0%
31 | Cc1ccc2c(c1)N(C(=O)N1CCC(C(=O)NC3CCCCCC3)CC1)CCO2 | -23.2% | -3.6%
32 | Cc1ccc(NC(=O)c2cc(S(=O)(=O)N3CCCC(C)C3)cn2C)c(Br)c1 (stereo not given) | ? | ?
33 | COc1ccc(C(CC(=O)NCc2ccc(Cl)cc2)N2Cc3ccccc3C2=O)cc1OC (stereo not given) | -29.0% | -6.6%
34 | Cc1ccc(C)c(NC(=O)C2CCCN(S(=O)(=O)c3cn(C)cn3)C2)c1 (stereo not given) | -5.5% | ?
35 | CCc1cccc(CC)c1NC(=O)CCS(=O)(=O)c1ccc2c(c1)CCN2C(C)=O | -3.3% | ?
36 | Cc1cc(C)cc(NC(=O)CSc2nnc(CNC(=O)c3c(F)cccc3Cl)o2)c1 | 0.2% | -6.5%
37 | CCCCn1cc(S(=O)(=O)c2ccc(C)c(C)c2)c(=O)c2cc(F)c(N3CCN(C)CC3)cc21 | 7.3% | -19.1%
38 | O=C(COc1ccc(Cl)cc1)NCCc1csc(-c2ccc(F)cc2)n1 | ? | -4.0%
39 | CC(=O)N1CCCc2ccc(NS(=O)(=O)c3ccc(C)c(C)c3)cc21 | 3.7% | 5.6%
40 | CCOC(=O)c1ccc(NC(=O)c2nc(SCc3ccccc3F)ncc2Cl)cc1 | ? | -5.3%

Record cards, as listed above. Order of values: HTT promoter inh | PMP22 txn prim
Cc1ccc(C)c(NC(=O)C2CCCN(S(=O)(=O)c3cn(C)cn3)C2)c1 (stereo not given) across the screens: -5.5% | ?
CCOC(=O)c1ccc(NC(=O)c2nc(SCc3ccccc3F)ncc2Cl)cc1 across the screens: ? | -5.3%

(more compounds)
item | compound | HTT promoter inh | PMP22 txn prim
41 | COc1ccccc1CNC(=O)c1nn(-c2ccc(C)cc2)c(=O)c2c1c1ccccc1n2C | -1.1% | -17.2%
42 | COc1cccc(CNC(=O)c2c(C)nn(-c3cccc(C)c3)c2-n2cccc2)c1 | ? | -27.2%
43 | O=C(NC1CC(=O)N(c2ccccc2)C1)c1ccc(S(=O)(=O)N2CCOCC2)cc1 (stereo not given) | -30.8% | 59.7%
44 | Cc1ccc(NC(=O)CCCn2c(=O)c3cccn3c3ccccc32)c(Cl)c1 | 28.9% | ?
45 | CCOC(=O)c1sc2ccccc2c1S(=O)(=O)Nc1ccc(CC)cc1 | ? | ?
46 | CC[C@H](C=C[C@@H](C)[C@H]1CC[C@H]2[C@@H]3CC=C4C[C@@H](O)CC[C@]4(C)[C@@H]3CC[C@]12C)C(C)C | -0.1%[25.2 µM] | /
47 | O=C(NCCc1ccccc1)c1ccc2c(c1)N(Cc1ccccc1F)C(=O)c1ccccc1S2=O (stereo not given) | 11.1% | -30.2%
48 | Cc1cccc(Cc2c(C)nc3nc(SCC(=O)NC4CCCCC4)nn3c2C)c1 | -13.1% | 8.5%

In the list so far, these contain bromine:
item | compound | HTT promoter inh | PMP22 txn prim
30 | Cc1cccc(C(=O)Nc2nc(-c3ccc(Br)cc3)ns2)c1 | 7.2% | 7.0%
32 | Cc1ccc(NC(=O)c2cc(S(=O)(=O)N3CCCC(C)C3)cn2C)c(Br)c1 (stereo not given) | ? | ?

Back to the main list, repeating the 2 entries before the break.
item | compound | HTT promoter inh | PMP22 txn prim
47 | O=C(NCCc1ccccc1)c1ccc2c(c1)N(Cc1ccccc1F)C(=O)c1ccccc1S2=O (stereo not given) | 11.1% | -30.2%
48 | Cc1cccc(Cc2c(C)nc3nc(SCC(=O)NC4CCCCC4)nn3c2C)c1 | -13.1% | 8.5%
49 | Cc1ccc(-c2cc(C(F)(F)F)nn2-c2ccc(S(N)(=O)=O)cc2)cc1 | -15.5%&-9.3% | /
50 | O=C(NCCCc1nc2ccccc2n1Cc1ccc(Cl)cc1)c1ccco1 | ? | -29.1%
51 | COc1cccc(NC(=O)C2CCN(S(=O)(=O)c3c(C)noc3C)CC2)c1 | -4.9% | -5.4%
52 | Cc1ccc(-n2nc(C)c3c(C(=O)NCCc4ccc(S(N)(=O)=O)cc4)cc(C)nc32)cc1 | -16.9% | 0.3%
53 | CCCn1c(SCc2nc(-c3ccc(OC)cc3OC)no2)nnc1-c1ccc(Cl)cc1 | ? | ?
54 | CCC1CCCCN1CC(=O)Nc1cc(C)c2c(=O)oc3ccccc3c2n1 (stereo not given) | 3.7% | -13.4%
55 | Cc1ccc(C(=O)N2CCN(c3cccc(Cl)c3)CC2)cc1-n1c(C)nc2cccnc21 | ? | ?
56 | CC(N)CCCC(C)(C)O (stereo not given) | 1.5% | /
57 | Cc1ccc2c(c1)N(C(=O)CCC(=O)Nc1ccccc1Cl)CC(C)O2 (stereo not given) | -19.8% | ?
58 | COCCNC(=O)C(=O)NCC(c1cccnc1)N1CCN(c2ccccc2OC)CC1 (stereo not given) | ? | ?
59 | O=C(Nc1nnc(S(=O)(=O)N2CCCc3ccccc32)s1)c1cccc(Cl)c1 | ? | -10.4%
60 | Cc1ccc2c(Sc3ccc(Cl)cc3)c(C(=O)N3CCC(C)CC3)[nH]c2c1 | -27.6% | ?
61 | COc1ccc(CNC(=O)C(=O)Nc2cc(Cl)ccc2OC)cc1 | -11.0%[11.5 µM] | -10.2%
62 | CCCOc1ccc(-c2nc(SCC(=O)c3ccc(Cl)cc3)n[nH]2)cc1 | -6.2% | -15.0%
63 | COc1ccc(NC(=O)C(=O)NCC(c2ccc3c(c2)OCO3)N2CCN(C)CC2)cc1 (stereo not given) | -13.0% | -37.4%
64 | CC1CC(=O)N(CC(=O)Nc2ccc(F)cc2F)c2ccccc2S1 (stereo not given) | -10.7% | -16.5%
65 | CCOc1ccc(CCNC(=O)c2cc3sc(CC)cc3n2C)cc1OCC | ? | -23.0%
66 | CC(=O)c1ccc(NC(=O)CSC2=Nc3ccccc3N=C(c3ccc(F)cc3)C2)cc1 | -2.4% | 14.5µM*
67 | Cc1cccc(NC(=O)/C(C#N)=C/c2ccc(C)o2)c1 | 17.6% | ?
68 | Cc1nc2ccn(Cc3cccnc3)c(=O)c2cc1C(=O)N1CCN(c2ccc(F)cc2)CC1 | -16.3% | ?
69 | COc1ccc(NC(=O)Cn2nnc3sc4c(c3c2=O)CCC(C)C4)c(OC)c1 (stereo not given) | -4.0% | 1.7%
70 | Cc1cc(=O)n2nc(N3CCC(C(=O)Nc4ccc(C)c(Cl)c4)CC3)sc2n1 | -10.9% | ?
71 | Cc1c(Cl)cccc1-n1ncc(C(=O)Nc2ccc3c(c2)OCCO3)c1C1CCN(C(=O)OC(C)(C)C)CC1 | -24.9% | ?
72 | CCOC(=O)c1ccccc1NC(=O)CSc1ccc(-c2sc(C)nc2C)nn1 | -10.9% | ?
73 | CCCCc1nn2c(=O)cc(COC(=O)c3cccc(NC(=O)COc4ccccc4)c3)nc2s1 | 19.9% | ?
74 | CC(=O)c1ccc(N2CCN(C(=O)c3cc4cc5cc(C)ccc5nc4s3)CC2)cc1 | 8.1% | 13.6%
75 | CC1CN(C(=O)N2CCC(C(=O)NCCCc3ccccc3)CC2)c2cc(Cl)ccc2O1 (stereo not given) | ? | ?
76 | COc1cc(NC(=O)C(CC(C)C)N2Cc3ccccc3C2=O)cc(OC)c1 (stereo not given) | ? | 60.8%
77 | Cc1cn(C)c(CC(=O)N2CCN(c3ccccc3F)CC2)c1C(=O)O | -11.6% | 9.9%
78 | Cc1ccc(NC(=O)N2CCC(CN3CCCC3)CC2)c(C)c1 | -16.1% | 8.7%
79 | CCOc1ccc(OCC)c(NC(=O)C2CCN(c3nnc(-n4cccc4)s3)CC2)c1 | -10.0% | -9.1%
80 | CCOc1ccc(NC(=O)c2c(C)nn(-c3ccc(F)cc3)c2-n2cccc2)cc1 | -17.2% | 1.6%
81 | COc1ccc2c(c1)c1c(c(=O)n(-c3ccc(OC)c(OC)c3)c(=O)n1Cc1ccccc1F)n2C | -4.7% | -24.1%
82 | COc1ccc(N2CC(NC(=O)/C=C\c3ccccc3)CC2=O)cc1OC (stereo not given) | 2.0% | 3.3%
83 | CC(=O)N1c2ccc(S(=O)(=O)N3CCN(c4cc(Cl)ccc4C)CC3)cc2CC1C (stereo not given) | 7.0% | -18.7%
84 | COc1ccc(C2c3c(n(C)c4ccccc34)C(=O)N2CC(=O)Nc2ccccc2F)cc1 (stereo not given) | ? | -12.3%
85 | CCc1cccc(CC)c1NC(=O)CCS(=O)(=O)c1ccc(Br)s1 | -10.8% | ?
86 | CCOC(=O)C1CCN(C(=O)c2ccc3c(c2)sc2nc(-c4ccc(OCC)cc4)cn23)CC1 | ? | -14.4%
87 | O=C(Nc1cccc(Cl)c1)c1ccc(F)c(S(=O)(=O)N2CCC3(CC2)OCCO3)c1 | ? | -17.7%
88 | COc1ccc(-n2nc(C(=O)Nc3ccc(C(C)=O)cc3)nc2-c2ccccc2)cc1 | -16.8% | ?
89 | C[N+]1(CC2COC(c3ccccc3)(c3ccccc3)O2)CCCCC1 (stereo not given) | -2.7%[25.2 µM] | /
90 | Cc1cccc(-c2nc(Cn3c(=O)cc(-c4ccccc4)c4c(C)nn(C)c43)c(C)o2)c1 | 4.0% | -16.1%
91 | COc1ccc(-c2cc(C(F)(F)F)nc(SCCC(=O)Nc3ccc(OC)c(OC)c3)n2)cc1 | -29.2% | ?
92 | CCOc1c(CC2C(=O)Nc3ccc(Br)cc32)cccc1OC (stereo not given) | ? | ?
